DUX4 inh: blocks DUX4-driven transcriptional activation; 293T-iDUX4 ZSCAN4-Gaussia luciferase reporter, 24 h; active compounds read low; activity change, negative = inhibition, % (test concentration not listed); actives 0.8% (n = 37,000);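 active means -10% or lower and over 25 points stronger than a control reporter; inconclusive means -10% or lower with a smaller gap; inactive means above -10%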;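 further: 0% = median of neutral control wells and -100% = median of positive control wells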
DUX4 inh difference: also measured in DUX4 inh; calls as there; Gaussia minus Italica difference, %; measured here: selective DUX4 reporter inhibition;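 worked out from the two reporters; negative = selective loss of the DUX4 reporter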
DUX4 inh control: also measured in DUX4 inh; calls as there; activity change, negative = inhibition, %; measured here: Italica tet-on control reporter;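 0 = neutral control and -100 = positive control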
Numbers without * were called inactive; ? = inconclusive; . = no result given. Some of the compounds tested; count on the stated rates, not on these rows.

DUX4 inh difference	DUX4 inh control	compound	DUX4 inh
-2	0.0	C[C@H]1CN([C@@H](C)CO)C(=O)CCCn2nncc2CO[C@@H]1CN(C)Cc1cccc(C(=O)O)c1	-2
6	-1.6	CN(C)CCCNC(=O)[C@@H]1[C@@H](CO)[C@@H]2Cn3c(ccc(-c4ccc(F)cc4)c3=O)[C@H]1N2C	5
.	.	COc1ccc(C#Cc2ccc([C@H]3[C@@H](CO)N4CCCCN(C(=O)Nc5ccccc5F)C[C@@H]34)cc2)cc1	?
2	-0.3	CC(C)NC(=O)N1Cc2cc(C(=O)NC3CCCCC3)nc(-c3cccc(-c4cccnc4)c3)c2[C@H]1CCO	1
.	.	Cc1ccccc1S(=O)(=O)N1CC[C@@H]2[C@H](CO)Nc3ccc(C#Cc4ccccc4)cc3[C@@H]21	?
-5	1.5	N#C[C@@H]1[C@H](c2ccc(-c3ccccc3)cc2)[C@@H](CO)N1C(=O)Cc1ccccc1	-3
-4	4.4	CCN1[C@@H]2c3ccc(-c4ccc(F)cc4)c(=O)n3C[C@H]1[C@H](CO)[C@H]2C(=O)Nc1nccs1	1
-6	0.5	CCCC#Cc1ccc([C@H]2[C@@H](CO)N(C(C)=O)[C@@H]2CNC(=O)C2CCC2)cc1	-5
2	-1.1	O=C(Nc1ccc(Cl)cc1)N1C[C@H]2[C@@H](c3ccccc31)[C@H](CO)N2C(=O)C1CC1	1
-6	7.2	CC(C)C#Cc1ccc([C@@H]2[C@@H](CO)N3C(=O)CN(C(=O)NC4CCCC4)C[C@@H]23)cc1	1
.	.	COc1ccc2c3c([nH]c2c1)[C@H](CO)N(C(=O)Nc1ccc(F)cc1)CC31CN(Cc2ccccc2OC)C1	?
-1	1.9	CN1C(=O)c2cc(NC(=O)Cc3cccs3)ccc2OC[C@@H]2O[C@@H](CC(=O)NCCCN3CCOCC3)CC[C@H]21	1
.	.	N#C[C@H]1[C@@H](c2ccccc2-c2ccc(F)cc2)[C@@H](CO)N1C(=O)Cc1ccccc1	?
1	-1.0	CC(C)NC(=O)N(C)C[C@@H]1Oc2cc(C#Cc3ccccn3)ccc2S(=O)(=O)N([C@H](C)CO)C[C@@H]1C	0
1	0.7	CN1[C@@H]2c3ccc(-c4ccccc4F)c(=O)n3C[C@@H]2[C@@H](CO)[C@@H]1C(=O)NCc1ccncc1	1
8	3.3	O=C(NCC[C@H]1CC[C@H](NS(=O)(=O)c2cccc(Cl)c2)[C@@H](CO)O1)c1cnccn1	11
.	.	O=C(C[C@@H]1CC[C@H]2[C@@H](COC[C@H](O)CN2Cc2ccc(Oc3ccccc3)cc2)O1)N1CCN(c2ccccc2)CC1	?
-5	2.6	O=C(c1ccccc1)N1CC[C@@H]2[C@@H](CO)Nc3ccc(-c4ccc(F)cc4)cc3[C@@H]21	-3
0	1.8	N#C[C@@H]1N[C@H](CO)[C@H]1c1ccc(C2=CCCC2)cc1	2
-3	2.8	CC(=O)N(C)C[C@@H]1Oc2cc(-c3ccc(C)cc3)ccc2S(=O)(=O)N([C@H](C)CO)C[C@H]1C	0
0	-0.5	CN1C(=O)c2cc(NC(=O)Cc3ccccc3)ccc2OC[C@@H]2O[C@H](CC(=O)NC3CCC3)CC[C@@H]21	-1
-6	-2.6	COc1ccc(S(=O)(=O)Nc2ccc3c(c2)C(=O)N([C@@H](C)CO)C[C@@H](C)[C@@H](CN(C)C(=O)CCC(F)(F)F)OCCCC[C@H](C)O3)cc1	-9
.	.	CC=Cc1ccc2n(c1=O)C[C@@H]1[C@@H](CO)[C@H](C(=O)NCCOC)[C@H]2N1Cc1nccs1 (mixture of isomers)	?
1	-1.3	COc1ccccc1CNC(=O)C[C@H]1CC[C@H]2[C@@H](COc3ccc(NC(C)=O)cc3C(=O)N2C)O1	-1
.	.	CCCNC(=O)N1CC2(CCN(Cc3cccc(OC)c3)CC2)c2c(n(C)c3cc(OC)ccc23)[C@H]1CO	?

Fetched one by one from the entries so far:
DUX4 inh difference	DUX4 inh control	compound	DUX4 inh
2	-0.3	CC(C)NC(=O)N1Cc2cc(C(=O)NC3CCCCC3)nc(-c3cccc(-c4cccnc4)c3)c2[C@H]1CCO	1
0	1.8	N#C[C@@H]1N[C@H](CO)[C@H]1c1ccc(C2=CCCC2)cc1	2
-5	2.6	O=C(c1ccccc1)N1CC[C@@H]2[C@@H](CO)Nc3ccc(-c4ccc(F)cc4)cc3[C@@H]21	-3
-3	2.8	CC(=O)N(C)C[C@@H]1Oc2cc(-c3ccc(C)cc3)ccc2S(=O)(=O)N([C@H](C)CO)C[C@H]1C	0

(listing goes on)
DUX4 inh difference	DUX4 inh control	compound	DUX4 inh
0	0.9	N#C[C@H]1[C@@H](c2ccc(C3=CCCC3)cc2)[C@H](CO)N1c1nc(-c2ccccc2)cs1	0
4	5.9	CCCNC(=O)N1CC(=O)N2[C@H](CO)[C@@H](c3ccc(-c4ccc(F)cc4)cc3)[C@H]2C1	10
3	0.8	O=C(CN1CCOCC1)N1[C@@H]2CNc3ccccc3[C@@H]2[C@@H]1CO	4
2	-2.9	CO[C@H](CN(C)Cc1cc(F)ccc1F)[C@H](C)CN([C@@H](C)CO)S(=O)(=O)c1ccc(C)cc1	-1
7	3.0	CCCC#Cc1ccc([C@H]2[C@H]3CN(C(=O)Cc4cccnc4)CC(=O)N3[C@H]2CO)cc1	10
-1	5.3	CO[C@@H]1CN(C)C(=O)c2cc(NS(=O)(=O)c3ccccc3)ccc2OC[C@@H](C)N(Cc2cccnc2)C[C@@H]1C	5
4	-3.9	CN1CCN(C(=O)C[C@@H]2C[C@H]3c4cc(NC(=O)Cc5ccncc5)ccc4O[C@H]3[C@@H](CO)O2)CC1	0
6	-1.4	CC(C)C(=O)Nc1ccc2c(c1)C(=O)N(C)[C@H]1CC[C@@H](CC(=O)NCc3ccccc3F)O[C@H]1CO2	5
11	-12	CN1c2ccc(-c3ccc(C#N)cc3)cc2[C@@H]2[C@@H](CCN2C(=O)Nc2ccccc2F)[C@@H]1CO	-2
-13	6.5	C[C@@H]1CN([C@@H](C)CO)C(=O)CCCn2cc(nn2)CO[C@H]1CN(C)Cc1cccc2c1OCCCO2	-7
3	-1.2	CNC[C@@H]1OCCCC[C@@H](C)Oc2ccc(NS(=O)(=O)c3cn(C)cn3)cc2C(=O)N([C@H](C)CO)C[C@@H]1C	2
-1	2.4	O=C(NC[C@H]1N[C@H](CO)[C@@H]1c1ccc(-c2ccccc2)cc1)c1cccc(F)c1	2
9	-3.7	C[C@@H]1CN([C@H](C)CO)C(=O)c2ccccc2-c2ccccc2CO[C@@H]1CN(C)S(=O)(=O)c1ccc([N+](=O)[O-])cc1	5
-1	1.0	COc1ccc(NC(=O)Nc2ccc3c(c2)C(=O)N([C@@H](C)CO)C[C@@H](C)[C@H](CN(C)S(=O)(=O)c2c(C)noc2C)OCCCC[C@@H](C)O3)cc1	0
3	2.5	CN1C(=O)c2cc(NC(=O)c3cccc(C#N)c3)ccc2OC[C@H]2O[C@@H](CC(=O)NCCN3CCCC3)CC[C@@H]21	6
-3	0.4	C[C@@H]1CCCCO[C@@H](CN(C)C(=O)c2ccccc2)[C@H](C)CN([C@@H](C)CO)C(=O)c2cc(NS(=O)(=O)c3ccc(F)cc3)ccc2O1	-2
-1	-0.1	Cc1noc(C)c1S(=O)(=O)Nc1ccc2c(c1)C(=O)N([C@@H](C)CO)C[C@H](C)[C@H](CN(C)S(=O)(=O)c1ccc(F)cc1)OCCCC[C@@H](C)O2	-1
10	-1.8	C[C@H](CO)N1C[C@H](C)[C@H](CN(C)C(=O)Nc2ccccc2C(F)(F)F)OCc2ccccc2-c2ccccc2C1=O	8
-3	-4.0	OC[C@H]1[C@H](c2ccc(-c3ccc(F)cc3)cc2)[C@@H]2CN(Cc3ccncc3)CCCCN12	-7
.	.	Cc1ccccc1-c1ccc([C@H]2[C@@H](CO)N3C(=O)CN(C(=O)Nc4cccc(F)c4)C[C@@H]23)cc1	?
13	7.0	CCS(=O)(=O)N1CCCCN2[C@H](C1)[C@H](c1ccc(-c3ccc(C#N)cc3)cc1)[C@@H]2CO	20
-2	1.0	C[C@@H]1CN([C@@H](C)CO)C(=O)c2cc(NC(=O)Cc3cn(C)c4ccccc34)ccc2O[C@@H]1CN(C)C(=O)Nc1ccc(C(F)(F)F)cc1	-1
-3	7.2	CCCNC(=O)Nc1ccc2c(c1)C(=O)N(C)C[C@@H](OC)[C@H](C)CN(Cc1cccnc1)[C@H](C)CO2	4
6	1.2	O=C(CN1CCOCC1)N[C@H]1CC[C@@H](CCNC(=O)Nc2cc(F)ccc2F)O[C@@H]1CO	7
2	-4.4	C[C@@H]1CN([C@@H](C)CO)C(=O)c2cccc(N(C)C)c2O[C@@H]1CN(C)C(=O)NC1CCCCC1	-3

DUX4 inh difference	DUX4 inh control	compound	DUX4 inh
6	-2.0	C[C@H](CO)N1C[C@H](C)[C@@H](CN(C)C(=O)NC2CCCCC2)Oc2ccc(NC(=O)Nc3cccc4ccccc34)cc2C1=O	4
-32*	7.7*	Cc1ccccc1-c1ccc(C2[C@@H]3CN(Cc4cccnc4)C[C@H]2N3)cc1 (stereo not given in full)	-24*
1	-0.7	C[C@@H]1CCCCO[C@@H](CN(C)S(=O)(=O)c2ccccc2)[C@@H](C)CN([C@@H](C)CO)C(=O)c2cc(NC(=O)CCC(F)(F)F)ccc2O1	0
.	.	C/C=C/c1ccccc1[C@H]1[C@@H](CO)N(C(=O)Nc2ccc(OC)cc2)[C@H]1C#N	?
-7	-0.4	COc1ccccc1-c1ccc([C@H]2[C@H](C#N)N(C(=O)C3CC3)[C@H]2CO)cc1	-7
-30*	4.0*	COc1cccc(S(=O)(=O)Nc2ccc3c(c2)C(=O)N(C)C[C@@H](OC)[C@H](C)CN(Cc2ccccc2F)[C@H](C)CO3)c1	-26*
2	-6.7	CC(C)NC(=O)N(C)C[C@H]1Oc2ccc(NS(=O)(=O)c3ccc(F)cc3)cc2CC(=O)N([C@H](C)CO)C[C@H]1C	-5
-2	7.2	COCC(=O)N1[C@@H]2c3cccc(=O)n3C[C@@H]2[C@@H](CO)[C@@H]1C(=O)NCc1ccccc1	5
-1	1.5	C[C@H](NC(=O)[C@H]1N[C@H]2c3ccc(-c4ccc(C(=O)N(C)C)cc4)c(=O)n3C[C@H]2[C@@H]1CO)c1ccccc1	0
-1	0.8	CCCN(C)C[C@@H]1Oc2cc(C#CC3CCCCC3)ccc2S(=O)(=O)N([C@@H](C)CO)C[C@H]1C	0
-19	10	C[C@@H]1CN([C@H](C)CO)C(=O)CCCn2cc(nn2)CO[C@H]1CN(C)Cc1ccc(C(=O)Nc2ccccc2N)cc1	-9
2	-1.0	CC(=O)NC[C@H]1[C@@H](c2ccc(C#C[C@H](C)O)cc2)[C@@H](CO)N1Cc1ccccn1	1
2	0.5	C[C@@H]1CN([C@H](C)CO)C(=O)c2cc(-c3ccc(C#N)cc3)cnc2O[C@@H]1CN(C)C(=O)CC1CC1	3
4	0.3	C[C@@H](NC(=O)C[C@H]1C[C@@H]2c3cc(NS(C)(=O)=O)ccc3O[C@@H]2[C@H](CO)O1)c1ccccc1	4
-3	-1.9	C/C=C/c1ccc([C@H]2[C@@H](CO)N[C@@H]2CN(C(=O)c2ccccc2F)C(C)C)cc1	-5
5	-3.0	C[C@@H]1CN([C@@H](C)CO)C(=O)CCCn2cc(nn2)CO[C@@H]1CN(C)C(=O)Nc1ccc(-c2cccs2)cc1	2
4	-2.8	CCCN(C)C[C@@H]1Oc2cc(C#CC3(O)CCCC3)ccc2S(=O)(=O)N([C@H](C)CO)C[C@@H]1C	1
-2	-1.9	COCC(=O)Nc1ccc2c(c1)[C@@H]1C[C@H](CC(=O)NCc3ccc4c(c3)OCO4)O[C@H](CO)[C@@H]1O2	-4
.	.	O=C(Nc1ccccc1F)N1CCCCN2[C@@H](CO)[C@@H](c3ccc(/C=C/c4ccccc4)cc3)[C@@H]2C1	?
1	-3.1	CO[C@@H]1CN(C)C(=O)c2cc(NC(=O)Nc3cccc(F)c3)ccc2OC[C@@H](C)N(C(=O)C2CC2)C[C@H]1C	-2
-7	10	O=C(C1CCC1)N1CC(=O)N2[C@H](CO)[C@@H](c3ccc(Br)cc3)[C@@H]2C1	3
-3	1.5	C[C@@H]1CN([C@H](C)CO)S(=O)(=O)c2ccc(C#CC(C)(C)O)cc2O[C@@H]1CN(C)Cc1ccc(F)cc1	-1
1	2.2	CCCNC(=O)c1cc2c(c(-c3cccc(-c4cccc(OC)c4)c3)n1)[C@H](CCO)N([S@@](=O)C(C)(C)C)C2	3
-2	3.9	C[C@H]1CCCCO[C@H](CN(C)S(=O)(=O)c2cn(C)cn2)[C@@H](C)CN([C@@H](C)CO)C(=O)c2cc(NC(=O)CCCN(C)C)ccc2O1	2
-1	1.5	N#C[C@H]1[C@@H](c2ccc(C#Cc3ccccc3F)cc2)[C@H](CO)N1C(=O)C1CCC1	1
-7	10	CO[C@H](C(=O)N(C)C[C@@H]1OCc2ccccc2-c2ccccc2C(=O)N([C@@H](C)CO)C[C@H]1C)c1ccccc1	3
-1	7.8	O=C(C[C@@H]1C[C@H]2c3cc(NC(=O)CC4CC4)ccc3O[C@H]2[C@@H](CO)O1)NCc1cc(F)ccc1F	7

Whole records, looked up by structure. Order of values: DUX4 inh difference | DUX4 inh control | DUX4 inh
CCCN(C)C[C@@H]1Oc2cc(C#CC3(O)CCCC3)ccc2S(=O)(=O)N([C@H](C)CO)C[C@@H]1C is listed as 4 | -2.8 | 1
C[C@H](CO)N1C[C@H](C)[C@@H](CN(C)C(=O)NC2CCCCC2)Oc2ccc(NC(=O)Nc3cccc4ccccc34)cc2C1=O is listed as 6 | -2.0 | 4
COc1ccccc1-c1ccc([C@H]2[C@H](C#N)N(C(=O)C3CC3)[C@H]2CO)cc1 is listed as -7 | -0.4 | -7

Bioassay records from PubChem BioAssay.
